Assay outcomes: PubChem, several laboratories
Yeast UUG start: modulators of yeast start codon fidelity, primary screen, whole organism, S. cerevisiae, single point, plate reader; S. cerevisiae UUG-firefly luciferase reporter, luminescence/redox ratio; activity score, % at 18.7 µM; 350,000 compounds, 0.13% hits; AID 602363, 2012;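 active = replicate mean at a twofold rise or more, about +100% in these data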;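 note: firefly luciferase made from a UUG start codon reports start codon fidelity; reporter light over untreated wells divided by growth signal over untreated wells; some hits fall short of that in this replicate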
HIV Env fusion: inhibitors of HIV-1 Env-driven cell-cell fusion, primary screen, HeLa-JRFL effector, CEM21 target cells, luciferase. inhibition, % at 12.3 µM. 360,000 compounds, 1.1% hits. AID 651610, 2012;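 active = mean replicate inhibition score of at least 50 and every replicate individually at or above 50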;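 note: 0% = plate neutral controls and 100% = maraviroc near 300 nM; one replicate is shown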
eIF4H inh: human eIF4H binding inhibitors, primary screen, translation initiation inhibitor project, biochemical, uHTS, fluorescence polarization; inhibition, % at 35 µM; eIF4H fluorescence polarization binding assay; AID 2012, 2009; Eukaryotic translation initiation factor 4H (Homo sapiens), Q15056; 290,000 compounds, 0.94% hits;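 active = 50% or more with normal probe brightness, or confirmed in later tests; about a fifth of its hits are not listed in these tables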;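 note: calls also rest on retests at 20 µM and on dose response follow-up; 0% = protein and probe with vehicle and 100% = probe without protein; strong numbers were not always called active; many hits fall short of the cut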
PABP FP inh: PABP poly(A) RNA binding inhibitors, primary screen, biochemical, fluorescence polarization, uHTS | Polyadenylate-binding protein 1 (Homo sapiens), P11940 | inhibition, % at 35 µM | 290,000 compounds, 1% hits | AID 2014, 2009;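 active = 50% or more with normal probe brightness, or confirmed in later tests; about a fifth of its hits are not listed in these tables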;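 note: calls also rest on retests at 20 µM and on dose response follow-up; controls were probe without protein and protein plus probe with vehicle; some compounds called inactive have numbers as strong as hits; many hits fall short of the cut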
Rce1 inhib: yeast Rce1p protease inhibitors, primary screen, biochemical, fluorescence, cell-free homogeneous; yeast membranes, quenched prenylated peptide cleavage fluorescence; calls only; 290,000 compounds, 0.27% hits; AID 2563, 2010;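 active = fall in fluorescence gain of 50% or more versus controls, with final raw signal at or below 3038400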;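 note: plate controls were neutral control wells for no effect and wells lacking membranes for full effect; tested at 10 µM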
Target sequence (Q03530 whole entry, looked up): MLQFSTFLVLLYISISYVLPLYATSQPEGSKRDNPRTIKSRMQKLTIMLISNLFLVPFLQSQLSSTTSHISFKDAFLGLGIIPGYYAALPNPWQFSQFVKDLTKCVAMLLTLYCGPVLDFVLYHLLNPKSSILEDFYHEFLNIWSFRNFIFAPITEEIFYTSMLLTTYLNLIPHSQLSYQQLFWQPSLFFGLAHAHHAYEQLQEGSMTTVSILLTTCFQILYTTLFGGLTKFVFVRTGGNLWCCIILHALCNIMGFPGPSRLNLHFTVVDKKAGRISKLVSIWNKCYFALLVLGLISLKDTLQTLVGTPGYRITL
CSC inhib: cancer stem cell viability inhibitors, primary screen, luminescence. cancer stem cell-like cells viability. inhibition, % at 7.5 µM. 300,000 compounds, 1.1% hits. AID 2717, 2010;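 active = mean at 75% or more and at least half the replicates too; tested in HMLE shEcad cells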;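 note: 0% = median of negative and 100% = median of positive control wells; the first replicate is given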
MT1-MMP act inh: blockers of MT1-MMP proenzyme processing, primary screen, HT1080 RFP-PRO-GFP cells, GFP/RFP fluorescence; Matrix metalloproteinase-14 (Homo sapiens), P50281; GFP/RFP ratio fluorescence, overnight; percent of plate control window, DMSO zero; GFP/RFP ratio change, % at 20 µM; 360,000 compounds, 0.061% hits; AID 651647, 2012;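 active = GFP/RFP ratio change of at least 30% with cell ATP level not reduced by more than half and red fluorescence within 50% of control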; note: strong numbers were not always called active
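Assay system: HT1080 RFP-PRO-GFP cells | Dosing: 20 µM single dose, 1% DMSO | Incubation: Cells overnight before dosing, compound overnight, 37 °C, 5% CO2 | Evaluation: GFP/RFP fluorescence ratio | Control set: DMSO-only wells and HT1080 RFP-L50D-GFP cell wells as references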
eIF4H inh retest: also measured in eIF4H inh; calls as there; inhibition, %; compound at 20 µM; confirmation average;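 mean of two retest wells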
PABP FP inh retest: recorded beside PABP FP inh, whose call it bears; inhibition, %; compound at 20 µM; confirmation repeats;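 mean of two retest wells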
MT1-MMP act inh RFP: second read-out of MT1-MMP act inh, no call of its own (marks repeat the call); RFP signal change, %; measured here: RFP expression control read;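 0 = vehicle wells; hits needed this value within 50% of zero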
An asterisk follows results filed as active; i = inactive; . = no result given; & = joins results of further samples; [ ] = dose if it differs, or a comment.

SMILES | Yeast UUG start | HIV Env fusion | eIF4H inh | PABP FP inh | Rce1 inhib | CSC inhib | MT1-MMP act inh | MT1-MMP act inh RFP | others
O=C(CCCCCNc1nc(=S)[nH]c2ccccc12)NCCc1ccc(Cl)cc1 | . | 14 | -11 | 10 | . | 30 | 1 | -10
COc1ccc2[nH]c(C(=O)O)c(NS(=O)(=O)c3ccc(OC)c(OC)c3)c2c1 | -3 | -40 | 1 | 27 | i | -10 | -1 | 5
COc1ccc(NC(=O)CN(C)C(=O)c2ccc(NS(=O)(=O)c3ccc(C)c([N+](=O)[O-])c3)cc2)cc1 | . | . | . | . | i | -9 | 2 | 0
COc1ccc(NCc2nnc(SCC(=O)Nc3nc(-c4ccccc4)cs3)n2-c2ccccc2)cc1 | . | 27 | -5 | -2 | i | -4 | -1 | -1
Cc1cccc(N(C)C(=O)CCS(=O)(=O)c2cc3c(cc2Cl)NC(=O)CO3)c1 | -18 | -13 | -14 | -3 | i | -3 | 2 | 8
NNC(=O)C1=NOC(CNc2ncc(C(F)(F)F)cc2Cl)C1 (stereo unspecified) | 2 | . | -2 | 1 | i | 8 | 2 | 9
O=C(N/N=C/c1ccccc1Cl)c1cccc(F)c1 | -7 | -84 | 8 | -3 | i | -8 | 2 | 1
Cc1cc(C)cc(NC(=O)CCNS(=O)(=O)c2cc(Br)cnc2N)c1 | -20 | -4 | . | . | i | -6 | 1 | 1
O=C(CN1CCC(n2nnc3cc(C(F)(F)F)ccc32)CC1)NNC(=O)c1ccco1 | . | 9 | -7 | 0 | i | -4 | -3 | 2
COc1ccc(NCN2C(=O)C3C4C=CC(C4)C3C2=O)cc1 (stereo unspecified) | -13 | 2 | -6 | 4 | i | 4 | 4 | 9
O=C(O)C1CCCN1C(=O)c1cccs1 (stereo unspecified) | -4 | . | -1 | 4 | i | -11 | -1 | 6
Cc1ccc(-n2c(CCc3nc4ccccc4[nH]3)n[nH]c2=S)cc1 | . | 5 | -15 | -10 | i | 3 | 5 | -1
CCN(CC(=O)NCc1ccncc1)S(=O)(=O)c1ccccc1 | -17 | -3 | 9 | -5 | i | -1 | -2 | 1
[O-]/[N+](=C/c1ccco1)c1ccccc1 | -8 | 5 | -14 | -7 | i | -10 | -1 | -4
CC(/C=C1\SC(=S)N(NS(=O)(=O)c2ccccc2)C1=O)=C\c1ccccc1 | -6 | 0 | 5 | 15 | i | 22 | 23 | 20
O=C(N/N=C\c1ccc(-c2ccc([N+](=O)[O-])cc2)o1)C1COc2ccccc2O1 (stereo unspecified) | . | -5 | -4 | 3 | i | -2 | -2 | -1
C[C@@H]1CN([C@@H](C)CO)C(=O)c2cc(NC(=O)C3CC3)ccc2O[C@@H]1CN(C)C(=O)NC1CCCCC1 | 4&5 | 0[16.7 µM] | . | . | . | -12 | -3 | -4
COc1ccc2cc3cc(C(=O)NCC4COc5ccccc5O4)oc3nc2c1 (stereo unspecified) | -12 | . | -2 | 5 | i | . | . | .
Oc1ccc(CCNc2c3ccccc3nc3ccccc23)cc1O | -5 | -4 | 2 | -10 | i | 76* | 15 | 11
CC(C)C[C@@H](CNCC(=O)[C@H](CC(=O)O)NC(=O)c1[nH]cnc1C(=O)N[C@H](CN)CC(C)C)NC(=O)c1nc[nH]c1C(=O)N[C@@H](Cc1ccccc1)C(=O)O | 4 | 2 | . | . | . | . | 1 | 0
COc1ccc(-c2cnc(N)n2CC2CCCO2)cc1 (stereo unspecified) | -33 | 35 | 9 | -9 | i | 6 | 12 | 5
O=C(Nc1ccccc1)OCCNC(=O)c1cccc(Br)c1 | -37 | -25 | 2 | 5 | i | 12 | 0 | -3
CCC(C)Nc1nc2c(c(=O)n(C)c(=O)n2C)n1Cc1cccc(C)c1 (stereo unspecified) | 4 | . | -5 | 1 | i | -11 | 2 | 0
COc1ccc(NC(=O)CS(=O)CC(=O)Nc2ccc(NC(C)=O)cc2)cc1 (stereo unspecified) | 1 | 20 | 0 | 2 | i | -1 | -9 | -6
O=C(O)c1cn(-c2ccc(F)cc2)c(=O)c2ccccc12 | . | -4 | 1 | 0 | i | -6 | -4 | 1
(listing goes on)
SMILES | Yeast UUG start | HIV Env fusion | eIF4H inh | PABP FP inh | Rce1 inhib | CSC inhib | MT1-MMP act inh | MT1-MMP act inh RFP | others
CCOC(=O)c1[nH]c2cc(OC)c(OC)cc2c1NC(=O)C(C)N1CCN(Cc2ccccc2)CC1 (stereo unspecified) | -21 | . | -2 | 5 | i | . | -7 | -7
COc1ccc(-n2c(=O)[nH]cc(C(=O)N3CCc4ccccc43)c2=O)cc1 | -11 | -8 | 2 | -1 | i | 5 | -2 | 4
Cc1ccc(C)c(NC(=O)Cc2csc(-c3ccccc3)n2)c1 | . | -13 | -6 | 20 | i | 6 | 0 | 1
O=C(CN1C(=O)c2ccccc2C1=O)NC1CCCCC1 | -14 | 6 | -4 | 1 | i | -14 | 0 | 4
COCCNC(=O)c1onc(CSc2ccccn2)c1C(=O)NCCOC | -12 | -17 | . | . | i | 9 | 2 | 6
O=C(NCC1CCCCC1)C1CCC(=O)N(CCc2cccc(F)c2)C1 (stereo unspecified) | -4 | -7 | -5 | -2 | i | -4 | 3 | -1
COc1ccccc1C(=O)Nc1nc2ccc(S(C)(=O)=O)cc2s1 | -23 | -109 | 0 | -6 | i | 0 | 3 | -1
Cc1cc(NC(=O)c2cccc(Oc3ccccc3)c2)n[nH]1 | . | -41 | -15 | -9 | i | 7 | 5 | -5
Cc1cc(OCC(=O)OCC(=O)NC2CCCCCC2)ccc1Cl | -15 | . | . | . | . | -11 | 2 | 5
Cc1ccccc1CNS(=O)(=O)c1csc(C(N)=O)c1 | -20 | -4 | 7 | -9 | i | -2 | 1 | 3
CCN(CCC(=O)Nc1cc([N+](=O)[O-])ccc1OC)Cc1ccccc1 | . | 9 | -4 | 16 | i | -10 | -4 | 2
Cc1nc2ccc(NC(=O)COc3ccccc3C)cc2s1 | -6 | -28 | 6 | -3 | i | -5 | 0 | 1
O=C(CCc1ccccc1)N1CCCC1 | 1 | -24 | -13 | -9 | i | -10 | 0 | 0
CCCCCCCCCCS(=O)(=O)N/N=C/c1ccc([N+](=O)[O-])cc1 | -14 | . | -6 | 3 | i | 86* | 0 | 2
CC(C)C[C@H](N)c1nnc(SCC(=O)Nc2ccc(Br)cc2)o1 | -6 | 1 | . | . | i | -25 | -3 | 1
Cc1cc2ncn(C(=O)c3c(-c4c(Cl)cccc4Cl)noc3C)c2cc1C | -10 | -30 | -4 | -7 | i | -5 | -13 | -2
COc1cccc(NC(=O)c2ccc(N3C(=O)C4CCC(C)CC4C3=O)cc2)c1 (stereo unspecified) | 0 | 2 | 71 | -4 | i | -16 | -2 | -3 | eIF4H inh retest=-2;PABP FP inh retest=8
O=C(CSc1nc(C2CC2)nc2ccccc12)N1c2ccccc2Sc2ccccc21 | -19 | -109 | -8 | -1 | i | 5 | 3 | -3
COC(=O)C1=CN(Cc2ccc(C)cc2)C=C(C(=O)OC)C1c1cc(OC)c(OC)c(OC)c1 | -8 | 16 | -3 | 1 | i | 4 | 1 | -2
COc1ccc(CCN/C=C2/CC(=O)NC2=O)cc1OC | -1 | . | 4 | -1 | i | -4 | -2 | 0
Cc1ccccc1-c1ncc(CN2CCN(C3CCCCC3)C(CCO)C2)cn1 (stereo unspecified) | . | -16 | 1 | 3 | i | 1 | 0 | 2
CCN1C(=O)[C@@H]2[C@H](C1=O)[C@@H]1C(=O)Nc3ccccc3C(=O)N1[C@@H]2c1ccc(Br)cc1 | -2 | 20 | . | . | i | -3 | 2 | 1
COc1cc(-c2cc(C(=O)N(C)Cc3ccccc3)c3ccccc3n2)cc(OC)c1OC | 20 | 15 | -5 | -11 | i | -10 | 5 | -4
Cc1nc2ncnn2c(Nc2ccc3c(c2)OCCO3)c1C | -6 | -120 | . | . | i | -4 | 3 | 3
COc1ccccc1N1CCN(C2CCCN(C(=O)c3ccccn3)C2)CC1 (stereo unspecified) | -4 | 16 | 1 | 11 | i | 8 | -1 | 3
(listing goes on)
SMILES | Yeast UUG start | HIV Env fusion | eIF4H inh | PABP FP inh | Rce1 inhib | CSC inhib | MT1-MMP act inh | MT1-MMP act inh RFP | others
Cn1c(=O)c2c(n(C)c1=O)=NC1(CCCCC1)ON=2 | -10 | . | -2 | 4 | i | -6 | -1 | 2
COC(=O)COc1ccc(S(=O)(=O)N2CCc3ccccc3C2)cc1 | 0 | -22 | -14 | -7 | i | -3 | 1 | 0
COc1ccccc1C(CC(=O)Nc1ccc(C)c(C)c1)c1ccc(OC(C)C)cc1 (stereo unspecified) | . | 10 | 0 | 7 | i | . | -18 | -17
Cc1ccc(C(=O)N2c3ccccc3NC(=O)C2C)cc1 (stereo unspecified) | . | 15 | -9 | -2 | i | -14 | -2 | -2
CC(=O)CN1C(=O)NC2(CCCc3ccccc32)C1=O (stereo unspecified) | -15 | 21 | -6 | -6 | i | -10 | 1 | 6
Cc1nnc(Sc2cc(C(=O)NCc3ccco3)c3ccccc3n2)s1 | -9 | . | 15 | 2 | i | -8 | 0 | 3
O=C1OC(c2ccccc2)=N/C1=C\C=C\c1ccco1 | . | 0 | 5 | 7 | i | . | 0 | 8
CCOc1nc(SC(C(C)=O)C(=O)Nc2ccccc2)nc(N(C)C)n1 (stereo unspecified) | -12 | . | 4 | 6 | i | . | 6 | 3
O=S(=O)(NCC1CCCO1)c1ccccc1 (stereo unspecified) | -14 | -12 | -12 | 4 | i | -9 | 0 | 1
O=C1/C(=C/c2ccc3c(c2)OCO3)Oc2cc(OCC(=O)N3CCC[C@H]3C(=O)O)ccc21 | 11 | . | -4 | 10 | i | -4 | 2 | -1
O=C(O)/C=C/c1cn(-c2ccccc2)nc1-c1cccs1 | -11 | -39 | -6 | -4 | i | 10 | -5 | 1
O=C(CCSCc1ccccc1F)NCc1cccs1 | -45 | 7 | 4 | 0 | i | 1 | 1 | 4
Cc1ccc(S(=O)(=O)Nc2ccc3c(c2)OCCO3)cc1 | -5 | 3 | 2 | -8 | i | -9 | 0 | -4
COc1ccc(NC2c3ccccc3C(=O)N2Cc2ccccc2Cl)cc1OC (stereo unspecified) | -25 | 17 | -9 | 0 | i | . | 0 | -1
CN(Cc1nccs1)C(=O)C1CCC(=O)N(CCc2cccc(F)c2)C1 (stereo unspecified) | -14 | -8 | 0 | 9 | i | -7 | 0 | 2
